Compound activity as filed in PubChem.
Mtb growth: Confirmatory growth inhibition assay against Mycobacterium tuberculosis H37Rv, potency (AID 1949); most inactive calls were filed without a number and no value below 0 was filed; one-dose inhibition, % at 10 µg/mL; IC50 in µg/mL for titrated hits; hit rate 1.6% among 100,000;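 active = confirmed in a dose series; inconclusive = about 50% or more but not retested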;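 note: bacteria grown 7 days with compound before Alamar blue readout; 0% = untreated bacteria and 100% = reference antibiotic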
Numbers without * were called inactive; i = inactive; ? = inconclusive.

SMILES	Mtb growth
CCC(Oc1ccccc1)C(=O)Nc1ccc(Cl)cn1 (stereo not given)	i
COC(=O)c1ccccc1NC(=O)C1CCN(S(=O)(=O)c2ccc(Br)cc2)CC1	i
CCc1nc(C)cn1S(=O)(=O)c1ccc(I)cc1	2%
Brc1cccc(-c2nnco2)c1	0%
CC(C)(C)N(Cc1ccccc1)C(=O)c1cc(Br)ccc1Cl	i
Cc1ccc(N2C(=O)CC(N3CCOCC3)C2=O)cc1Cl (stereo not given)	i
COc1cc(/C=C(\C#N)c2nc3ccccc3[nH]2)cc(Br)c1OCc1ccc(C#N)cc1	i
COc1ccccc1OCC(=O)Nc1sc2c(c1C#N)CCCCC2	i
COc1ccc(Cl)cc1NS(=O)(=O)c1ccc(CC(C)C)cc1	i
Cc1ccc(OCC(=O)Oc2ccc(Cl)cc2)cc1	i
COc1ccc(Cl)cc1NC(=S)N1CCN(C(=O)C2CCCO2)CC1 (stereo not given)	i
CCOc1ccc(NC(=S)NC(=O)Cc2ccccc2)cc1	?
COc1ccc(C)cc1NC(=O)c1ccc(C(C)(C)C)cc1	i
CCOc1ccc(C(=O)Nc2c(C)cc(C)cc2C)cc1Br	i
COc1ccc(NC(=O)C(C)Oc2cccc(Cl)c2)cc1Cl (stereo not given)	i
COC(=O)c1ccc(C2c3c(oc4ccc(C)cc4c3=O)C(=O)N2Cc2ccc(F)cc2)cc1 (stereo not given)	1%
CC(C)c1ccc(N(CC(=O)N2CCN(c3ccccc3)CC2)S(C)(=O)=O)cc1	3%
CNC(=O)N1C(=O)C(=O)c2ccccc21	1%
c1ccc(Cc2nc3ccc4[nH]snc4c3n2)cc1	9%
COc1ccc(S(=O)(=O)Nc2ccccc2C(=O)N2CCCC2)cc1Br	i
NC(=O)c1ccccc1NC(=O)COc1cc(Cl)ccc1Cl	i
CCN(CC)C(=O)C(=O)Nc1ccc(C)c(C)c1	i
CC(C)c1ccc(OCC(=O)Nc2ccc(S(=O)(=O)N3CCCCC3)cc2)cc1	i
CCN1CCN(C(=O)COc2ccc(S(=O)(=O)N(C)Cc3ccccc3)cc2)CC1	i
Cc1cc(NC(=O)c2ccc3c(c2)OCO3)c(C)cc1I	i
CC(C)=CCSc1nnc2c(n1)[nH]c1c(C)cccc12	i
CCOC(=O)c1ccc(N2C(=O)CC(Nc3ccc(N4CCOCC4)cc3)C2=O)cc1 (stereo not given)	i
Cc1cc(C(=O)N2CCC(C(F)(F)F)n3nccc32)on1 (stereo not given)	i
C=CCn1c(SCC(=O)Nc2nc(-c3ccccc3)cs2)nnc1-c1cc(Br)ccc1O	i
CC1=C(C(=O)OC(C)C)C(c2ccccc2[N+](=O)[O-])N2C(=O)C(C)SC2=N1 (stereo not given)	i
CCC(=O)OCC12COC3c4ccccc4OC(C)(CC1C)C3C2C (stereo not given)	19%
COC(=O)c1cn(CC(=O)NC(C)C)c2ccccc12	i
CCCC(=O)Nc1ccc(Cl)c(NC(=O)c2ccc(F)cc2)c1	i
O=C(CCN1CCOCC1)N1c2ccccc2Sc2ccc(Cl)cc21	i
Cc1ccc(Cl)cc1NC(=O)c1cccc(Cl)c1Cl	i
COc1ccc(C(=O)Nc2sc(Cc3ccccc3)c(C)c2C(N)=O)cc1	2%
O=C(Cc1ccc(Cl)cc1)Nc1ccc(Br)c(Cl)c1	i
O=C(N1CCCCC1)C12CC3CC(C1)CC(c1ccccc1)(C3)C2	i
O=c1c2ccccc2nnn1Cc1cccc([N+](=O)[O-])c1	i
CCN(CC)C(=O)c1sc(NC(=S)Nc2ccc3c(c2)CCC3)c(C(=O)OC)c1C	i
Cc1cccc(C)c1OCC(=O)Nc1cccc([N+](=O)[O-])c1C	3%
Cc1cc(C)cc(C(=O)Nc2sc(C)c(C)c2C(N)=O)c1	i
Cc1ccc(CC(=O)Nc2ncc(S(=O)(=O)c3ccc([N+](=O)[O-])cc3)s2)cc1	i
CC(=O)Oc1ccc(N(C(C)=O)S(=O)(=O)c2c(C)cc(C)cc2C)cc1	i
COc1cc(C2CC(=O)Nc3cc(C)c(C)cc32)cc(OC)c1OC (stereo not given)	i
Cc1nn(-c2ccc3ccccc3c2)c(=O)c2ccccc12	5%
COc1ccc(C(=O)NC(=S)Nc2ccc(-c3cc4ccccc4oc3=O)cc2)cc1[N+](=O)[O-]	i
COc1ccc(OC)c(NS(=O)(=O)c2ccc(NC(=O)CCc3ccccc3)cc2)c1	i
Cc1nc2ccc(NC(=S)N3CCC(c4ccccc4)C3)cc2nc1C (stereo not given)	i
CCC(C(=O)Nc1nnc(Cc2ccc(OC)cc2)s1)c1ccccc1 (stereo not given)	i
COc1ccc(/C(N)=N/OC(=O)CCc2ccccc2)cc1OC	i
CCN(CC)c1cccc(Oc2nc3c(c(=O)n(C)c(=O)n3C)n2Cc2ccc(Cl)cc2)c1	3%
O=[N+]([O-])c1ccc(-c2nnc(SCc3cccc(Cl)c3)n2Cc2ccccc2)cc1	6%
COC(=O)c1ccc(NC(=O)CCn2nc(-c3ccc(Cl)cc3)c3ccccc3c2=O)cc1	i
CC(Oc1ccccc1F)C(=O)Nc1ccc(S(=O)(=O)N2CCCCC2)cc1 (stereo not given)	3%
COc1ccc(N2CC(C(=O)Nc3ccccc3C(=O)NCc3ccccc3)CC2=O)cc1 (stereo not given)	i
CC(C)OCC(O)CN1C(C)(C)CC(O)CC1(C)C (stereo not given)	i
Cc1ccc(NC(=S)NCCc2cnc[nH]2)cc1C	i
CCN(CC(=O)NCc1ccccc1OC)S(=O)(=O)c1ccc(Cl)cc1	i
c1ccc(Oc2cnn(-c3ccccc3)c2)cc1	3%

Next part
SMILES	Mtb growth
O=C(CN1C(=O)c2ccccc2C1=O)Nn1cnnc1	i
COc1ccc(OC)c(NC(=O)CN(c2cc(Cl)ccc2Cl)S(C)(=O)=O)c1	7%
O=C(Nc1cccc(C(F)(F)F)c1)c1cncc(Br)c1	i
COc1ccccc1NC(=O)c1ccccc1NC(=O)c1ccc(F)cc1	i
COc1ccc(-n2cnc(/N=C/N(C)C)c2C(=O)c2cccc([N+](=O)[O-])c2)cc1	1%
CCN(CC)S(=O)(=O)c1cccc(N2C(=O)CCC2=O)c1	1%
Cc1c(NC(=O)Cc2ccc(Cl)cc2)c(=O)n(-c2ccccc2)n1C	i
COc1ccc(OC)c(C(=O)C2COC(=O)C2)c1 (stereo not given)	i
Cc1ccc(N2OC3C(=O)NC(=O)C3C2c2ccco2)cc1 (stereo not given)	i
COc1cccc(NC(=O)c2cccc(OC)c2OC)c1	3%
Cc1ccc(C(=O)NC(C)c2ccccc2)cc1Br (stereo not given)	i
CCCCOc1ccc(C(=O)Nc2ccc(N3CCCC3=O)cc2)cc1	i
COc1ccc(C(=O)COc2ccc3c(=O)c(-c4ccc(OC)c(OC)c4)c(C)oc3c2)cc1	i
O=C(Cc1coc2ccc3ccccc3c12)N1CCc2ccccc21	i
O=C(Nc1ccc(C2CC2(Cl)Cl)cc1)c1ccccc1Br (stereo not given)	i
COc1cc(OC)c(NC(=O)c2c(Cl)cccc2Cl)cc1Cl	i
Cc1ccc(S(=O)(=O)N/N=C/c2c(Cl)cccc2Cl)cc1[N+](=O)[O-]	i
CC(=O)c1cccc(NC(=S)N2CCCC2)c1	i
CCOCc1nnc(NC(=O)C2c3ccccc3Oc3ccccc32)s1	0%
CCNC(=S)Nc1sc(C(=O)N(CC)CC)c(C)c1C(=O)OC	i
C=CCn1cnc2c(sc3nc4c(cc32)COC(C)(C)C4)c1=O	i
CC(Oc1ccc2c(c1)CCC2)C(=O)NNC(=S)NCc1ccco1 (stereo not given)	i
CCOC(=O)c1cnc2ccc(F)cc2c1NCc1ccco1	6%
Cc1ccc(-n2nc3ccc(NC(=O)Cc4ccccc4)cc3n2)cc1C	i
O=C(CSc1nc2ccccc2c(=O)[nH]1)Nc1cccc2nsnc12	i
COc1ccc(Br)cc1C(=O)Nc1ccc(-c2nnc(-c3ccccc3)o2)cc1	i
COC(=O)c1c(NC(=S)NCc2ccc(S(N)(=O)=O)cc2)sc2c1CCC(C)C2 (stereo not given)	i
Cc1ccc(-c2csc(/C(C#N)=C\c3cccc([N+](=O)[O-])c3)n2)cc1	i
Cc1nc2n(CC(=O)c3cccs3)c3ccccc3n2n1	i
O=C(NCCCN1CCOCC1)c1cc(-c2ccccc2)on1	i
O=C(CNS(=O)(=O)c1ccccc1)OCc1ccc([N+](=O)[O-])cc1	i
CCN(CC)c1ncnc2sc3c(c12)CCC(C)C3 (stereo not given)	i
O=C(c1cc(-c2ccccc2)on1)N1CCCC1	i
CC1(CC(=O)O)C(=O)N=C2C=CC=CN21 (stereo not given)	i
CC(C)c1ccccc1NC(=O)CSc1nnc(C(C)NC(=O)c2ccccc2Br)n1C (stereo not given)	i
Cc1cc(C)nc(Nc2n[nH]c(-c3ccccc3Cl)n2)n1	i
O=C(CCC1CCCC1)N1CCN(S(=O)(=O)Cc2ccccc2)CC1	i
CC(CCc1ccccc1)NC(=O)CC1COc2ccccc2O1 (stereo not given)	i
COc1ccc(-n2c(-c3ccc(Cl)cc3)n[nH]c2=S)c(OC)c1	1%
Cc1ccc(NC(=O)CC(c2ccccc2)c2ccccc2)c(Br)c1	i
COCCSc1ccccc1C(=O)NCc1ccc(Cl)cc1	i
CC(C(=O)Nc1ccc(Cl)cc1C(=O)c1ccccc1)N1CCOCC1 (stereo not given)	i
CCOc1ccccc1N(CC(=O)Nc1ccccc1C(=O)N1CCOCC1)S(C)(=O)=O	i
Cc1cc(Cl)ccc1OCC(=O)Nc1ccc(Cl)cc1F	1%
CCOC(=O)C1=C(C)N(c2ccccc2)C(=O)C1CC(=O)Nc1ccc(C)cc1C (stereo not given)	i

Two neighbouring entries from above:
SMILES	Mtb growth
O=C(CCC1CCCC1)N1CCN(S(=O)(=O)Cc2ccccc2)CC1	i
CC(CCc1ccccc1)NC(=O)CC1COc2ccccc2O1 (stereo not given)	i

Next section.
SMILES	Mtb growth
Cc1ccc(C(=O)NCC(=O)NCC(=O)OCc2cccc(C(=O)Oc3ccccc3)c2)cc1	i
CCc1c(C)sc(NC(=O)c2ccc(F)cc2)c1C(=O)OC	6%
Cc1nnc(SCC(=O)N2CCN(c3ccc(Cl)cc3)CC2)s1	i
Cc1ccc(C(CC(=O)C(C)C)C2C(=O)c3ccccc3C2=O)cc1 (stereo not given)	i
CC1=C(C(=O)Nc2ccc(F)cc2)C(c2cccc([N+](=O)[O-])c2)n2nc(CCCO)nc2N1 (stereo not given)	i
O=C(Nc1ccc(C(=O)N2CCCCC2)cc1)c1ccc([N+](=O)[O-])cc1	i
CCCCc1[nH]nc2c1C1(CCN(C(=O)OCC)CC1)C(C#N)=C(N)O2	i
O=C(CSCc1c(F)cccc1Cl)N1CCc2ccccc2C1	i
CCOC1(c2ccccc2)OC(=O)c2ccccc21 (stereo not given)	8%
CC1CC(C)CN(C(=O)c2c(F)c(F)c(F)c(F)c2F)C1 (stereo not given)	i
CC(C)C(=O)Nc1cccc(C(=O)Nc2cc(C(F)(F)F)ccc2Cl)c1	9%
Cc1ccc(NC(=O)C(C)N2C(=O)c3ccccc3C2=O)nc1 (stereo not given)	i
N#Cc1cn(-c2ccccc2)nc1-c1ccc2c(c1)OCCO2	i
COc1ccc(OC(C)C(=O)Nc2cccnc2)cc1 (stereo not given)	i
CCOCCCNCc1ccc(OCc2ccc(Cl)cc2)cc1	33%
CC(O)c1nc2ccccc2n1Cc1c(F)cccc1Cl (stereo not given)	i
CSc1ccc(S(=O)(=O)N(CC(=O)Nc2cccc(Cl)c2C)c2ccc(C)cc2)cc1	i
Cc1ccccc1CSCCNC(=O)CN(c1cccc(F)c1)S(C)(=O)=O	i
N#Cc1cc2c(nc1SCC(O)CNc1ccc(Cl)cc1)CCCC2 (stereo not given)	i
CCOc1cc(C#N)ccc1OCC(=O)N1CCCC1	i
COc1cc(NC(=S)NCC2CCCO2)cc(OC)c1 (stereo not given)	i
Cc1c(Cl)cccc1NC(=S)N1CCC(C(N)=O)CC1	i
CCOc1ccc(N2CC(C(=O)Nc3ncccc3C)CC2=O)cc1 (stereo not given)	i
O=S(=O)(c1cccc(-c2nc3ccccc3s2)c1)N1CCOCC1	i
O=C(NC(=S)Nc1ccc(Br)cc1F)c1ccc(Cl)cc1	i
CCC(=O)Nc1ccc(S(=O)(=O)N2CCOCC2)cc1	i
CC(=O)N(C)c1ccc(NC(=O)c2ccc3c(c2)OCO3)cc1	i
COc1ccc(-c2c(C)nn3c(C(F)(F)F)cc(-c4cccs4)nc23)cc1	i
Nc1cccc(Cl)c1N1CCOCC1	i

Of the compounds above, these have bromine:
SMILES	Mtb growth
COC(=O)c1ccccc1NC(=O)C1CCN(S(=O)(=O)c2ccc(Br)cc2)CC1	i
Brc1cccc(-c2nnco2)c1	0%
CC(C)(C)N(Cc1ccccc1)C(=O)c1cc(Br)ccc1Cl	i
COc1cc(/C=C(\C#N)c2nc3ccccc3[nH]2)cc(Br)c1OCc1ccc(C#N)cc1	i
CCOc1ccc(C(=O)Nc2c(C)cc(C)cc2C)cc1Br	i
COc1ccc(S(=O)(=O)Nc2ccccc2C(=O)N2CCCC2)cc1Br	i
C=CCn1c(SCC(=O)Nc2nc(-c3ccccc3)cs2)nnc1-c1cc(Br)ccc1O	i
O=C(Cc1ccc(Cl)cc1)Nc1ccc(Br)c(Cl)c1	i
O=C(Nc1cccc(C(F)(F)F)c1)c1cncc(Br)c1	i
Cc1ccc(C(=O)NC(C)c2ccccc2)cc1Br (stereo not given)	i
O=C(Nc1ccc(C2CC2(Cl)Cl)cc1)c1ccccc1Br (stereo not given)	i
COc1ccc(Br)cc1C(=O)Nc1ccc(-c2nnc(-c3ccccc3)o2)cc1	i
CC(C)c1ccccc1NC(=O)CSc1nnc(C(C)NC(=O)c2ccccc2Br)n1C (stereo not given)	i
Cc1ccc(NC(=O)CC(c2ccccc2)c2ccccc2)c(Br)c1	i
O=C(NC(=S)Nc1ccc(Br)cc1F)c1ccc(Cl)cc1	i

Not all compounds are listed; rates above refer to the full screens.
